IMPase Li inh: cell-permeable IMPase inhibitors with lithium potentiation. CHO-M1 cells, IP1 TR-FRET (IP-One), carbachol + lithium. Potency, µM (doses to about 59.4 µM), for inactives: top-dose activity, negative = IMPase inhibition, usual class: inhibitors. 210,000 compounds, 0.35% hits;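 further: IP1 builds up when IMPase is blocked and the TR-FRET signal falls; plate controls were basal vehicle for no effect and high inhibitor control for full effect; nearly all actives have a fitted effect of over 50% in size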
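Lithium-sensitised IP1 accumulation assay; M1-expressing CHO cells treated 30 min at 37C with compound. Competitive antibody detection by time-resolved FRET followed a 10 min room-temperature lysis step.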
Epigenetic derep: epigenetic control regulation, reporter derepression; murine LDR cells, GFP reporter derepression, 30 h; 280,000 compounds, 0.2% hits; Potency, µM (doses to about 53.9 µM), for inactives: at the highest dose GFP activation, actives largely listed as activators; AID 1865; further: % of control where 0% means no effect; nearly all actives have a fitted effect of over 60% in size
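Derepression of a silenced CMV-GFP reporter in murine LDR cells is scored by enumerating GFP-positive cells with a laser-scanning microplate cytometer after 30 hours of treatment at 37 C.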
HttQ103 aggreg: inhibitors of mutant huntingtin aggregate formation in PC12 cells; PC12 HttQ103-GFP aggregates, Acumen cytometry, 40 h; Potency, µM (top dose mostly 46.1 µM), for the others: at the top dose activity change, negative = inhibition, hits mostly inhibitors; 220,000 compounds, 1.1% hits; further: on the % scale 0 is the no-effect control and ±100 the full control effect; nearly all actives have a fitted effect of over 60% in size
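Using laser scanning cytometry, GFP-positive aggregates were counted after lysis of PC12 cells induced with 100 nM tebufenozide to express HTT exon 1 Q103–GFP. Compounds were tested in titration.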
KinaseGlo FLuc: counter-screen: inhibitors of Kinase-Glo firefly luciferase | AID 1379 | Potency, µM (doses to about 38.3 µM), without a hit: top-dose activity change, negative = inhibition, actives largely listed as inhibitors | Kinase-Glo luciferase, ATP luminescence, 8 min | 200,000 compounds, 0.28% hits | Q27757; further: on the % scale 0 is the no-effect control and ±100 the full control effect; nearly all actives have a fitted effect of over 60% in size
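Kinase-Glo luciferase light output from ATP and luciferin was measured with 10 uM ATP, within the enzyme's linear range. Buffer: 50 mM imidazole pH 7.2, 50 mM KCl, 7 mM MgCl2, 0.01% Tween 20, 0.05% BSA; luminescence read after 8 min at ambient temperature.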
Starred values were filed as active, the others as inactive; ? = inconclusive; . = not tested or not shown; & = joins results of further samples; [ ] = dose if it differs, or a comment. The call rests on the fitted dose curve; in most records, active means well fitted curve in the direction sought with a large enough effect; inconclusive means small, poorly fitted or top-dose-only effect, or another doubt; inactive means no such curve, though single readings can be large; an effect the other way counts as inactive or inconclusive. Potency means the concentration at half of the fitted maximal effect. Not all compounds are listed; the hit share may differ from the screen's.

Compound	IMPase Li inh	Epigenetic derep	HttQ103 aggreg	KinaseGlo FLuc
COc1ccccc1NC(=O)C1=C(C)Nc2nnnn2C1c1cccc(C)c1 (stereo not drawn)	-5%[38.3 µM]	1.0%	25%	3%
CCOC(=O)CNC(=O)CSc1nnc(COc2ccc(Cl)cc2)n1CC	-13%[38.3 µM]	-0.7%	7%	3%
O=C(O)CCSSCCC(=O)O	4%	.	.	.
CC1(C)Cc2ccccc2C(/C(=N/O)C(N)=O)=N1	-3%[38.3 µM]	0.0%	1%	1%
C/C(=N\NC1=NCCN1)c1ccc(N)c([N+](=O)[O-])c1	.	-1.1%	13%[9.22 µM]	.
C[C@H](NS(=O)(=O)c1ccc(Cl)cc1)C(=O)OCC(=O)c1ccc[nH]1	.	0.3%	-8%[9.22 µM]	.
CC(=O)Nc1ccc(N)cc1	-9%	.	.	.
Cc1cc(N/N=C\c2ccc(Br)cc2)nc(-n2nc(C)cc2C)n1	.	3.1%	5%[9.22 µM]	.

(more compounds)
Compound	IMPase Li inh	Epigenetic derep	HttQ103 aggreg	KinaseGlo FLuc
CCn1c(COc2ccc(C)cc2)nnc1SCC(=O)Nc1ccc(S(N)(=O)=O)cc1	5%[38.3 µM]	-1.9%	21%	1%
CC(C)NC(=S)NC(=O)c1ccc(Cl)cc1Cl	2%	-0.9%	-14%	-2%
N#CC(c1ccccn1)(c1ncc(C(F)(F)F)cc1Cl)N1CCOCC1 (stereo not drawn)	-14%[38.3 µM]	0.0%	5%	-4%
Cc1ccc(-c2nnc(N3CCN(C(=O)c4ccco4)CC3)c3ccccc23)cc1	12%[38.3 µM]	-1.7%	-33%	0%
O=C1CC[C@H](C(=O)O)N1	-23%	1.1%	.	.
CN(C)Cc1cc(C(C)(C)C)c(O)c(C(C)(C)C)c1	-4%[38.3 µM]	0.0%	12%	-1%
COc1ccc(NC(=O)c2sc(Cl)nc2-c2ccccc2)cc1	13%	0.0%	-12%	-1%
COC(=O)C1C(O)=C(C=Nc2cccc3ccccc23)C(=O)CC1(C)C (stereo not drawn)	.	0.1%	-16%[9.22 µM]	.

(listing goes on)
Compound	IMPase Li inh	Epigenetic derep	HttQ103 aggreg	KinaseGlo FLuc
Cc1ncccc1C(=O)N1CCCC(CNC(=O)C2(c3ccc(Cl)cc3)CC2)C1 (stereo not drawn)	13%	1.1%	18%[9.22 µM]	-1%
N#CCCSc1nc(N2CCOCC2)c2c(c1C#N)CCCC2	3%[38.3 µM]	-0.7%	-23%	-4%
CC1=C(C(=O)Nc2ccccc2)C(c2cccnc2)n2ncnc2N1 (stereo not drawn)	6%	-4.2%	3%[9.22 µM]	0%
NS(=O)(=O)c1cccc(NS(=O)(=O)c2cccc(C(F)(F)F)c2)c1	.	0.0%	-10%[9.22 µM]	.
Cc1cc(=O)n(-c2ccccc2)n1C	-7%&-6%	-1.3%	-2%	-2%
COC(=O)C1=NN(c2ccc(Cl)cc2)C2C(=O)N(c3ccccc3OC)C(=O)C12 (stereo not drawn)	2%	-1.1%	24%	-1%
Cc1cccc(C)c1Nc1nnc(SCC(=O)Nc2sccc2C#N)s1	-1%	-1.9%	28%	-1%
CC(C)(C)c1ccc(OCC(=O)NNC(=O)c2cccnc2)cc1	1%	0.0%	5%[9.22 µM]	-3%

A different layout for some results above:
The line under a structure holds: IMPase Li inh	Epigenetic derep	HttQ103 aggreg	KinaseGlo FLuc
- CC(=O)Nc1ccc(N)cc1
 : -9%	.	.	.
- Cc1cc(N/N=C\c2ccc(Br)cc2)nc(-n2nc(C)cc2C)n1
 : .	3.1%	5%[9.22 µM]	.
- CCn1c(COc2ccc(C)cc2)nnc1SCC(=O)Nc1ccc(S(N)(=O)=O)cc1
 : 5%[38.3 µM]	-1.9%	21%	1%
- CC(C)NC(=S)NC(=O)c1ccc(Cl)cc1Cl
 : 2%	-0.9%	-14%	-2%
- N#CC(c1ccccn1)(c1ncc(C(F)(F)F)cc1Cl)N1CCOCC1 (stereo not drawn)
 : -14%[38.3 µM]	0.0%	5%	-4%
- Cc1ccc(-c2nnc(N3CCN(C(=O)c4ccco4)CC3)c3ccccc23)cc1
 : 12%[38.3 µM]	-1.7%	-33%	0%
- O=C1CC[C@H](C(=O)O)N1
 : -23%	1.1%	.	.
- CN(C)Cc1cc(C(C)(C)C)c(O)c(C(C)(C)C)c1
 : -4%[38.3 µM]	0.0%	12%	-1%
- COc1ccc(NC(=O)c2sc(Cl)nc2-c2ccccc2)cc1
 : 13%	0.0%	-12%	-1%
- COC(=O)C1C(O)=C(C=Nc2cccc3ccccc23)C(=O)CC1(C)C (stereo not drawn)
 : .	0.1%	-16%[9.22 µM]	.
- Cc1ncccc1C(=O)N1CCCC(CNC(=O)C2(c3ccc(Cl)cc3)CC2)C1 (stereo not drawn)
 : 13%	1.1%	18%[9.22 µM]	-1%
- N#CCCSc1nc(N2CCOCC2)c2c(c1C#N)CCCC2
 : 3%[38.3 µM]	-0.7%	-23%	-4%
- CC1=C(C(=O)Nc2ccccc2)C(c2cccnc2)n2ncnc2N1 (stereo not drawn)
 : 6%	-4.2%	3%[9.22 µM]	0%
- NS(=O)(=O)c1cccc(NS(=O)(=O)c2cccc(C(F)(F)F)c2)c1
 : .	0.0%	-10%[9.22 µM]	.
- Cc1cc(=O)n(-c2ccccc2)n1C
 : -7%&-6%	-1.3%	-2%	-2%
- COC(=O)C1=NN(c2ccc(Cl)cc2)C2C(=O)N(c3ccccc3OC)C(=O)C12 (stereo not drawn)
 : 2%	-1.1%	24%	-1%
- Cc1cccc(C)c1Nc1nnc(SCC(=O)Nc2sccc2C#N)s1
 : -1%	-1.9%	28%	-1%

(cont.)
Compound	IMPase Li inh	Epigenetic derep	HttQ103 aggreg	KinaseGlo FLuc
NS(=O)(=O)c1cc2c(cc1Cl)N[C@@H](C(Cl)Cl)NS2(=O)=O	-4%	-1.4%[16.9 µM]	?	3%[17.1 µM]
O=C(O)c1cc(-c2ccccc2)nc2ccccc12	-11%	6.7%&1.0%	17%&-2%	-1%
COc1ccccc1N1C(=O)C2C(C(=O)c3ccccc3)=NN(c3ccc(C)cc3)C2C1=O (stereo not drawn)	.	5.4%	-1%[9.22 µM]	.
O=C(/C=C\c1ccc(O)c(O)c1)O[C@@H]1C[C@](O)(C(=O)O)C[C@@H](O)[C@@H]1O	-1%	-0.3%[16.9 µM]	.	0%[17.1 µM]
NS(=O)(=O)c1cc2c(cc1Cl)NCNS2(=O)=O	-1%&3%&9%&1%&-4%	2.5%	-11%&-17%	11%
N#CC(c1ccncc1)(c1ncc(C(F)(F)F)cc1Cl)N1CCOCC1 (stereo not drawn)	19%	2.6%	-26%	5%
C[C@]12CCC3c4ccc(O)cc4CCC3[C@@H]1CCC2=O (stereo partly drawn)	-4%	1.1%[16.9 µM]	.	0%[17.1 µM]
COc1cc(C(=O)O)ccc1O	2%	-0.6%	?	-3%

More structures.
Compound	IMPase Li inh	Epigenetic derep	HttQ103 aggreg	KinaseGlo FLuc
CCCCNC(=S)NNc1c(Cl)cc(Cl)cc1Cl	0%	-0.4%	10%	-2%
CCn1c(COc2ccc(Cl)cc2)nnc1SCC(=O)Nc1ccc2c(c1)OCO2	5%[38.3 µM]	0.8%	18%	1%
COc1ccc(OC)c(-n2c(-c3cc(-c4ccc(F)cc4)n[nH]3)n[nH]c2=S)c1	.	-1.0%	-7%	.
COc1ccc(Br)cc1C(=O)Nc1ccc(Cc2ccncc2)cc1	6%[38.3 µM]	1.3%	?	0%

Screening data from PubChem.
